Vaccinia Venus: inhibitors of vaccinia virus (Venus reporter). Vaccinia virus Venus reporter expression, fluorescence. Potency, µM (titrated, usually from 36.5 µM), inactives show at the highest dose activity change, negative = inhibition, most hits filed as inhibitors. 330,000 tested, 0.46% active; active means well fitted inhibition curve with a large enough effect; inconclusive means small, poorly fitted or top-dose-only effect; inactive means no such curve, though single readings can be large or run the other way; tested in A549 cells; note: nearly all actives have a fitted effect of over 30% in size; inactives centre near -10
Vaccinia mCherry: inhibitors of vaccinia virus infection (mCherry reporter signal); Vaccinia virus mCherry reporter infection, fluorescence; about a quarter of the inactives have no number; Potency, µM (titrated, usually from 36.5 µM), inactives show top-dose activity change, negative = inhibition, actives largely listed as inhibitors; 310,000 tested, 0.63% active; AID 720579; active = well fitted inhibition curve with a large enough effect; inconclusive = small, poorly fitted or top-dose-only effect; inactive = no such curve, though single readings can be large or run the other way; tested in A549 cells; note: nearly all actives have a fitted effect of over 35% in size; inactives centre near -10
Active calls of the source: *; [ ] = remark or other dose. % is set by controls: 0 for no effect and ±100 for the full control effect; potency is the fitted concentration of half-maximal effect. Rows are unselected, and some 0.86% of all compounds hit somewhere here.

Start of the data: the first 3 compounds as a preview:
How did CC(=O)/C(=N\Nc1cccc(Cl)c1)Sc1nnc(-c2ccccc2)n1-c1ccccc1 do in these assays?
Vaccinia Venus: 0%; Vaccinia mCherry: -13%

What do the screens show for `NC(=O)C1CCN(C(=O)c2cc3ccccn3n2)CC1`?
Vaccinia Venus: -7%; Vaccinia mCherry: inactive

How did Cn1c(=O)cc(Nc2ccccc2)c2c(=O)n(-c3ccccc3)c(=O)n(-c3ccccc3)c21 do in these assays?
Vaccinia Venus: -23%; Vaccinia mCherry: -1%

This part in full, from the first entry:
How did CC(=O)/C(=N\Nc1cccc(Cl)c1)Sc1nnc(-c2ccccc2)n1-c1ccccc1 do in these assays?
Vaccinia Venus: 0%; Vaccinia mCherry: -13%

What do the screens show for `NC(=O)C1CCN(C(=O)c2cc3ccccn3n2)CC1`?
Vaccinia Venus: -7%; Vaccinia mCherry: inactive

How did Cn1c(=O)cc(Nc2ccccc2)c2c(=O)n(-c3ccccc3)c(=O)n(-c3ccccc3)c21 do in these assays?
Vaccinia Venus: -23%; Vaccinia mCherry: -1%

How did COc1ccc2[nH]c(C)c(C(=O)CN3CCN(C(=O)c4ccco4)CC3)c2c1 do in these assays?
Vaccinia Venus: -22%; Vaccinia mCherry: -3%

How did COc1ccc(-c2ccc(S(=O)(=O)N3CCCC3)cc2)cc1 do in these assays?
Vaccinia Venus: -7%; Vaccinia mCherry: inactive

What do the screens show for `Cc1noc(NS(=O)(=O)c2ccc(NC(=O)CC(C)C)cc2)c1C`?
Vaccinia Venus: 13%; Vaccinia mCherry: -7%

What do the screens show for `CCCNC(=O)c1ccc(C2SCC(=O)N2Cc2ccccc2)cc1` (configuration not stated)?
Vaccinia Venus: -1%; Vaccinia mCherry: 14%

How did COc1cc2c(cc1OC)CN(C(=O)CSc1nc3[nH]ncc3c(=O)n1-c1ccccc1)CC2 do in these assays?
Vaccinia Venus: -21%; Vaccinia mCherry: -1%

What do the screens show for `O=C1CSC(c2cn(-c3ccccc3)nc2-c2cc3ccccc3oc2=O)N1Cc1cccnc1` (configuration not stated)?
Vaccinia Venus: -7%; Vaccinia mCherry: inactive

Results for Cc1ccc(NC(=O)c2oc3ccc(S(=O)(=O)N4CCCCC4)cc3c2C)cc1C ?
Vaccinia Venus: -17%; Vaccinia mCherry: -25%

Arranged by formula weight (ascending): some entries from above
What do the screens show for `NC(=O)C1CCN(C(=O)c2cc3ccccn3n2)CC1`?
Vaccinia Venus: -7%; Vaccinia mCherry: inactive

Results for Cc1ccc(NC(=O)c2oc3ccc(S(=O)(=O)N4CCCCC4)cc3c2C)cc1C ?
Vaccinia Venus: -17%; Vaccinia mCherry: -25%

How did CC(=O)/C(=N\Nc1cccc(Cl)c1)Sc1nnc(-c2ccccc2)n1-c1ccccc1 do in these assays?
Vaccinia Venus: 0%; Vaccinia mCherry: -13%

Later entries:
Results for CCCC(=O)Nc1ccc(Cl)c(NC(=O)c2ccco2)c1 ?
Vaccinia Venus: -11%; Vaccinia mCherry: -19%

How did CCOC(=O)N1CCC(NC(=O)c2cnn(-c3ccc(C)cc3)c2-n2cccc2)CC1 do in these assays?
Vaccinia Venus: -11%; Vaccinia mCherry: -11%

What do the screens show for `CS(=O)(=O)c1ccccc1-c1nnc(NC(=O)COc2ccc(Cl)cc2)o1`?
Vaccinia Venus: 1%; Vaccinia mCherry: -6%

What do the screens show for `COc1ccc(C(=O)Cc2cc(OC)c(OC)cc2C(=O)c2ccccc2F)cc1OC`?
Vaccinia Venus: -24%; Vaccinia mCherry: -1%

How did O=CN1CCCN(Cc2nc(Cc3ccccc3F)no2)CC1 do in these assays?
Vaccinia Venus: -1%; Vaccinia mCherry: -4%

What do the screens show for `Oc1ccc(C[C@H]2CNCCN2CCc2cccc3ccccc23)cc1`?
Vaccinia Venus: -26%; Vaccinia mCherry: inconclusive

How did CCCCC(=O)N(C)c1c(C)nc2ccc(C(=O)N3CCN(C(C)=O)CC3)cn12 do in these assays?
Vaccinia Venus: -1%; Vaccinia mCherry: -2%

What do the screens show for `Cc1cccc(N2CCN(C3C(=O)Nc4ccccc4-n4nnnc43)CC2)c1C` (configuration not stated)?
Vaccinia Venus: -30%; Vaccinia mCherry: inconclusive

How did COCCN(CC1CCCN(C2Cc3ccccc3C2)C1)C(=O)c1ccc(C(C)=O)cc1 (configuration not stated) do in these assays?
Vaccinia Venus: -10%; Vaccinia mCherry: -3%

What do the screens show for `COc1ccc(Nc2ncc(C(=O)Nc3cccc(Cl)c3)c3ccccc23)cc1`?
Vaccinia Venus: -9%; Vaccinia mCherry: -8%

2 entries drawn at random from the list so far:
How did CCOC(=O)N1CCC(NC(=O)c2cnn(-c3ccc(C)cc3)c2-n2cccc2)CC1 do in these assays?
Vaccinia Venus: -11%; Vaccinia mCherry: -11%

How did CCCCC(=O)N(C)c1c(C)nc2ccc(C(=O)N3CCN(C(C)=O)CC3)cn12 do in these assays?
Vaccinia Venus: -1%; Vaccinia mCherry: -2%

The results go on.
Results for Cc1ccc(S(=O)(=O)Nc2ccc3c(c2)C(=O)NC3=O)cc1[N+](=O)[O-] ?
Vaccinia Venus: -10%; Vaccinia mCherry: -3%

What do the screens show for `O=C1c2ccsc2SCCN1Cc1cccc(Cl)c1`?
Vaccinia Venus: -7%

Results for COc1ccc(Cl)cc1NC(=O)CN1CCN(S(=O)(=O)c2ccc(F)cc2)CC1 ?
Vaccinia Venus: -14%; Vaccinia mCherry: inactive

How did Cc1cccc(C(=O)Nc2ccn(C)n2)c1 do in these assays?
Vaccinia Venus: -3%; Vaccinia mCherry: -6%

How did FC(F)(F)c1cccc(-c2cc3nc(NCCCn4ccnc4)ccn3n2)c1 do in these assays?
Vaccinia Venus: -22%; Vaccinia mCherry: -1%

What do the screens show for `O=C(NCc1ccc(Cl)cc1)c1ccc(-n2cccn2)nc1`?
Vaccinia Venus: 4%; Vaccinia mCherry: -8%

Results for CCC(C)(C)C(=O)O ?
Vaccinia Venus: -2%; Vaccinia mCherry: -10%

How did Cc1nc2sc3c(c2c2nnc(SCC(=O)NCc4ccco4)n12)CCCC3 do in these assays?
Vaccinia Venus: -14%

How did COc1c(Cl)cc(C(=O)Nc2ccccc2-c2ccccc2)cc1Cl do in these assays?
Vaccinia Venus: -4%; Vaccinia mCherry: -11%

Results for CCCCCOc1ccc(C)cc1CN(CCCl)CCCl ?
Vaccinia Venus: -18%; Vaccinia mCherry: inactive

What do the screens show for `COc1ccc(CCNC(=O)c2cc(-c3ccccn3)nc3c(Cl)cccc23)cc1OC`?
Vaccinia Venus: 5%; Vaccinia mCherry: inactive

How did CCCC(C)C(=O)Nc1nnc(CCc2ccccc2)s1 (configuration not stated) do in these assays?
Vaccinia Venus: inconclusive; Vaccinia mCherry: -11%

What do the screens show for `CCN1C(=O)[C@H]2[C@@H](c3ccc(C)cc3)N3C(=O)N(c4ccccc4)C(=O)[C@@]3(Cc3ccccc3)[C@H]2C1=O`?
Vaccinia Venus: -24%; Vaccinia mCherry: inactive

How did CC(C)OCCCNC(=O)c1ccc(CSc2nc3cccnc3n2Cc2ccccc2)cc1 do in these assays?
Vaccinia Venus: -22%; Vaccinia mCherry: -29%

What do the screens show for `COc1cc(/C=N/NC(=O)CNC(=O)c2ccccc2)ccc1OC(=O)c1cccs1`?
Vaccinia Venus: -9%; Vaccinia mCherry: -13%

Results for Cc1ccc(C(=O)c2cc3c(cc2N)OCCO3)cc1 ?
Vaccinia Venus: -6%; Vaccinia mCherry: 3%

What do the screens show for `Cc1ccc(Cc2c(-c3cccc(Cl)c3)nc3c(C)cc(Br)cn23)cc1`?
Vaccinia Venus: -11%; Vaccinia mCherry: -4%

What do the screens show for `O=C(Nc1cc(Cl)ccc1O)c1cc2n(n1)C(C(F)(F)F)CC(c1ccc3c(c1)OCO3)N2` (configuration not stated)?
Vaccinia Venus: inconclusive

Results for CCOc1ccc(OCC)c(NC(=O)c2cnc(SC)nc2-c2ccccc2)c1 ?
Vaccinia Venus: -1%; Vaccinia mCherry: -8%

How did Cc1ccccc1-c1ncnn1-c1sc2c(c1C#N)CCCCC2 do in these assays?
Vaccinia Venus: 10%; Vaccinia mCherry: -5%

How did CNC(=S)N1CCn2cccc2C1c1ccc(F)cc1 (configuration not stated) do in these assays?
Vaccinia Venus: -1%; Vaccinia mCherry: -13%

How did CCOc1ccc(CNC(=O)CCS(=O)(=O)Cc2cccc(Cl)c2)cc1OC do in these assays?
Vaccinia Venus: -6%; Vaccinia mCherry: inactive

Results for Cc1cccc(CCNC(=O)CC2C(=O)NCCN2Cc2ccc(F)c(F)c2)n1 (configuration not stated) ?
Vaccinia Venus: -1%; Vaccinia mCherry: -2%

How did Cc1ccc(-n2nc3c(=S)[nH]nc(C)c3c2C)cc1 do in these assays?
Vaccinia Venus: -37%

How did COc1cc(OC)c2c(-c3ccccc3)cc(=O)oc2c1C(CC(=O)N1CCOCC1)c1ccc(N(C)C)cc1 (configuration not stated) do in these assays?
Vaccinia Venus: -20%; Vaccinia mCherry: -10%

How did CC[C@]12c3[nH]c4cc(-c5ccco5)ccc4c3CCN1C(=O)[C@@H](CC(=O)NC(C)(C)C)C[C@@H]2C(=O)N1CCN(C(=O)C2CC2)CC1 do in these assays?
Vaccinia Venus: inconclusive; Vaccinia mCherry: inconclusive

How did Cc1ccc(-n2ncc3c(=O)n(CC(=O)Nc4cccc(Cl)c4)cnc32)cc1C do in these assays?
Vaccinia Venus: -16%

Results for CCOc1ccccc1/C=N/NC(=O)c1nnn(-c2nonc2N)c1CN1CCCCCC1 ?
Vaccinia Venus: -3%; Vaccinia mCherry: 2%

What do the screens show for `COc1cccc(CSc2nnc(-c3ccc(F)cc3)o2)c1`?
Vaccinia Venus: -11%; Vaccinia mCherry: -14%

What do the screens show for `O=C(NCCCc1ccccc1)c1ccc(F)cc1`?
Vaccinia Venus: -18%; Vaccinia mCherry: -18%

Results for O=C1C[C@@H]2c3c(cccc3CN1Cc1ccccc1F)C[C@@H](O)[C@H]2O ?
Vaccinia Venus: 0%; Vaccinia mCherry: -4%

What do the screens show for `CCCCOC(=O)c1ccc(NS(=O)(=O)c2c(C)nc3scc(C)n3c2=O)cc1`?
Vaccinia Venus: -25%; Vaccinia mCherry: -22%

What do the screens show for `Nc1ccccc1C(=O)NCc1ccccc1`?
Vaccinia Venus: -2%; Vaccinia mCherry: -12%

Results for O=C(CNC(=O)c1ccco1)OCC(=O)c1ccc([N+](=O)[O-])cc1 ?
Vaccinia Venus: -2%; Vaccinia mCherry: inactive

What do the screens show for `CCOC(CNC(=O)c1cccc([N+](=O)[O-])c1)OCC`?
Vaccinia Venus: 2%; Vaccinia mCherry: -16%

Results for COc1ccccc1NS(=O)(=O)c1ccc(C(=O)NCc2ccc(S(N)(=O)=O)cc2)cc1 ?
Vaccinia Venus: -7%; Vaccinia mCherry: -20%

Results for O=S(=O)(CCc1nnc(-c2ccccc2)o1)c1ccc2ccccc2c1 ?
Vaccinia Venus: 2.8µM*

What do the screens show for `Cc1ccccc1CNC(=O)c1csc([C@@H]2O[C@H](CO)[C@@H](O)[C@H]2O)n1`?
Vaccinia Venus: -6%; Vaccinia mCherry: 2%

Results for COc1cccc2[nH]c(C(=O)NCc3ccc4c(c3)CCN4C(=O)c3ccc(F)cc3)cc12 ?
Vaccinia Venus: -12%; Vaccinia mCherry: -21%

Results for O=C(CSc1nnc(COc2ccccc2)o1)Nc1ccc(F)cc1 ?
Vaccinia Venus: inconclusive; Vaccinia mCherry: inconclusive

How did O=C(CN1C(=O)c2cccc3cccc(c23)C1=O)N1CCOCC1 do in these assays?
Vaccinia Venus: -4%; Vaccinia mCherry: -14%

How did Cc1c(N=C2N=C(NC(=O)Nc3ccc(Cl)cc3)c3ccccc32)c(=O)n(-c2ccccc2)n1C do in these assays?
Vaccinia Venus: -18%; Vaccinia mCherry: -20%

What do the screens show for `CN1CCN(C(=O)C2=C[C@H](C3CCCCC3)C[C@H](OCc3ccc(CO)cc3)O2)CC1`?
Vaccinia Venus: -25%; Vaccinia mCherry: inconclusive

How did CCCCN1C(=O)C(=O)N(CC(=O)Nc2cc(OCC)c(N3CCOCC3)cc2OCC)C1=O do in these assays?
Vaccinia Venus: 3%; Vaccinia mCherry: 5%

How did COCCN(CCOC)C(=S)Nc1ccccc1Cl do in these assays?
Vaccinia Venus: -21%; Vaccinia mCherry: -8%

How did CNc1nnc(SCC(=O)c2c(N)n(C3CC3)c(=O)[nH]c2=O)s1 do in these assays?
Vaccinia Venus: 13%; Vaccinia mCherry: -12%

Results for CCOC(=O)c1ccc(NS(=O)(=O)c2cc3c(cc2C)NC(=O)CO3)cc1 ?
Vaccinia Venus: 23%[7.34 µM]; Vaccinia mCherry: 6%[7.34 µM]

Results for CCOC(=O)c1ccc(NC(=S)NCCc2ccccc2)cc1 ?
Vaccinia Venus: -13%

Results for CC(CNC(=O)CCn1ccc2cc(S(=O)(=O)N3CCCC3)ccc21)c1ccccc1 (configuration not stated) ?
Vaccinia Venus: -25%; Vaccinia mCherry: inactive

How did O=[N+]([O-])c1ccccc1/C=N/OCc1ccccc1 do in these assays?
Vaccinia Venus: -11%; Vaccinia mCherry: -27%

How did Cc1ccc(C)n1-c1ccc(C(=O)NN)s1 do in these assays?
Vaccinia Venus: -2%; Vaccinia mCherry: -11%

How did Cc1oc2c(c1C(=O)NCc1cccc(Br)c1)C1=NCCN1C=N2 do in these assays?
Vaccinia Venus: -3%; Vaccinia mCherry: inactive

How did COCCN1CCN(C(=O)c2ccc3c(c2)S(=O)(=O)c2ccccc2C3=O)CC1 do in these assays?
Vaccinia Venus: -3%; Vaccinia mCherry: -8%

How did CC(=O)Nc1ccc(S(=O)(=O)NNC(=O)COc2ccc(Cl)cc2Cl)cc1 do in these assays?
Vaccinia Venus: 2%; Vaccinia mCherry: 38%[activator]

Results for CCN(CC)S(=O)(=O)c1ccc(NC(=O)Cn2cnc3ccccc3c2=O)cc1 ?
Vaccinia Venus: -17%; Vaccinia mCherry: -25%

Screening data (PubChem BioAssay)
